Source: PubChem BioAssay
gsp agonist = agonists of gsp mutant (McCune-Albright syndrome); 340,000 tested, 0.13% active; Potency, µM (doses to about 76.9 µM), inactives show top-dose activation (cAMP increase), usual class: activators; gsp mutant cells, cAMP HTRF, 30 min; control for the full effect not named in the record; active = well fitted activation curve with a large enough effect; inconclusive = small, poorly fitted or top-dose-only effect, or another doubt; inactive = no such curve, though single readings can be large or run the other way; cell line not stated here;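 also: phosphodiesterase inhibitor Ro 20-1724 added with compounds to block cAMP breakdown; potency is read from the fitted curve at half-maximal effect; nearly all actives have a fitted effect of over 60% in size; about a fifth of the inactives were tested at one dose only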
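Cells stably selected in G418 were plated at 2000/well, grown 16-24 hr, then given compounds in DMSO with the PDE inhibitor […] (300 uM solution added) for 30 min at 37C; cAMP was read by HTRF.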
gsp antagonist = antagonists of gsp mutant (McCune-Albright syndrome); gsp-mutant cells, cAMP HTRF, 30 min; control for the full effect not named in the record; Potency, µM (titrated, usually from 76.9 µM), inactives show at the highest dose activity change, negative = inhibition, most hits filed as inhibitors; 340,000 tested, 0.4% active; AID 624288; active = falling curve of any shape with a large fitted effect; inconclusive = falling curve, mostly with a smaller effect; inactive = flat or rising curve; cell line not stated here;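 also: intracellular cAMP measured with PDE inhibitor Ro 20-1724 present during compound exposure; potency is read from the fitted curve at half-maximal effect; % is scaled to controls: 0 for no effect and ±100 for the full control effect; nearly all actives have a fitted effect of over 65% in size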
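Measurement of cellular cAMP by homogeneous time-resolved fluorescence following a 30 min compound exposure at 37C. The PDE inhibitor […] was present throughout; the assay buffer was DPBS with 0.05% BSA and 0.005% Tween 20.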
D2 PAM = potentiates the human D2 dopamine receptor allosterically | 360,000 tested, 0.23% active | AID 624464 | DiscoveRx D2 beta-arrestin cells, luminescence, 90 min; 100% = 57 uM dopamine signal | P14416 | potentiation, % (test concentration not listed); active = potentiation of 50% or more; inconclusive = 30% to 50%; inactive = 30% or less;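 also: compound concentration not given in the record; tested on top of an EC20 dose of dopamine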
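D2 cells co-treated with compound plus 50 nM dopamine (EC20) for 90 min at 37 deg C to detect potentiation. Beta-arrestin recruitment was read as enzyme-fragment luminescence after 1 h at ambient temperature. Full response was set by 57 uM dopamine.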
Six1-Eya2 blk = inhibitors of human Six1/Eya2 interaction; Q15475+O00167; AlphaScreen GST-Six1/His-Eya2 binding, biochemical; stronger effect = lower value; control for the full effect not named in the record; activity change, % (test concentration not listed); 360,000 tested, 0.56% active; in the data active = activity change below about -65%; inconclusive = about -30% to -65%; inactive = above about -30%; also: % is scaled to controls: 0 for no effect and ±100 for the full control effect; compound concentration not given in the record
Target sequence (O00167 whole entry, looked up): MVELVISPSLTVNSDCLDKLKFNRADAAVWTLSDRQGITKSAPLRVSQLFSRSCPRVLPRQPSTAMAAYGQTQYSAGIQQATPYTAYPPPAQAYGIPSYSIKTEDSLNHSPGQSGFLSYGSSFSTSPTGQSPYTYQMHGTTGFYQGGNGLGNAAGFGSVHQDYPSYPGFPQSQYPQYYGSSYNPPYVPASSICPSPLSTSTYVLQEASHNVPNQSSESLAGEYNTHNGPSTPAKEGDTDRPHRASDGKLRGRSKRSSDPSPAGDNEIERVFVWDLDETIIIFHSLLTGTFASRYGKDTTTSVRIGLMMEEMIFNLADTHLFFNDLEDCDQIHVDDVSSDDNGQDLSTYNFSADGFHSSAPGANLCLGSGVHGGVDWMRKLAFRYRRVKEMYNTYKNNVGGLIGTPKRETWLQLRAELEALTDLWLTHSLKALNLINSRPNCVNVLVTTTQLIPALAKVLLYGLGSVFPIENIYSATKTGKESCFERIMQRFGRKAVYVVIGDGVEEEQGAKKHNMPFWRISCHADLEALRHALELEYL
Target sequence (Q15475 whole entry, looked up): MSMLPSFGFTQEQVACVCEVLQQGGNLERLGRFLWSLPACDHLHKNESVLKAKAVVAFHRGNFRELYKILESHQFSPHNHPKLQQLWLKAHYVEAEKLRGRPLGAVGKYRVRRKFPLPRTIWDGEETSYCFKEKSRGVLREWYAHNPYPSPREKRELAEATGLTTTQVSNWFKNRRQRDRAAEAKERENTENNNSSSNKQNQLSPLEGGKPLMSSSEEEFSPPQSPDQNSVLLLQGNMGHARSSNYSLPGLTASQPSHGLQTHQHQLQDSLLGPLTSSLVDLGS
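GST-Six1 + His-Eya2 (5X stock: 250/500 nM); Tris pH 8.0, 300 mM NaCl, 0.05% BSA, 0.02% Tween 20; GSH donor/Ni acceptor beads; 1 h 37 °C dark; AlphaScreen readout.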
CtBP-E1A inh = CtBP/E1A binding inhibition; AlphaScreen GST-E1A/His-CtBP binding, 1536-well; stronger effect = lower value; control for the full effect not named in the record; activity change, % (concentration not given with the values); 340,000 tested, 0.49% active; in the data active means activity change below about -65%; inconclusive means about -30% to -65%; inactive means above about -30%; also: % is scaled to controls: 0 for no effect and ±100 for the full control effect
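Homogeneous bead-based format: GST-tagged E1A captured on glutathione donor beads, His-tagged CtBP on nickel acceptor beads; compounds precede bead addition by 2 h at 37 °C.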
D2 agonist = agonists of human D2 dopamine receptor (beta-arrestin); P14416; DiscoveRx PathHunter D2 beta-arrestin, luminescence, 90 min; 100% = 57 uM dopamine signal; activation, % (no concentration beside the values); 360,000 tested, 0.084% active; AID 624465; in the data active = activation above about 40%; inconclusive = about 15% to 40%; inactive = below about 15%; also: compound concentration not given in the record; the text of the record calls up to 30% inactive
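DiscoveRx PathHunter D2 beta-arrestin cells (2,100/well) attached overnight, then compound-stimulated 90 min at 37 C in HBSS/10 mM HEPES/0.1% Tween-20 buffer; beta-galactosidase complementation read by luminescence after 1 h at ambient temperature. Dopamine 57 uM final (EC100) as control.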
The depositor's hits bear a star; ? = inconclusive; / = no result given; [ ] = another dose, or the depositor's remark.

Each structure is followed by: gsp agonist, gsp antagonist, D2 PAM, Six1-Eya2 blk, CtBP-E1A inh, D2 agonist
CCC1(CC)C(=O)Nc2ccccc21
 : /, 3%, -14, 6, 10, -2.0
COc1ccc(CN2C(=O)c3cccnc3C2=O)cc1S(=O)(=O)NCc1ccccc1
 : ?, 14%, -5, -15, /, -1.0
O=C1C(=C2CCc3ccccc32)Cc2ccccc21
 : -8%, ?, -7, 1, 0, -3.0
Cc1c(C(N)=O)c(N)c(C(=O)c2ccccc2)n1-c1ccccc1
 : -34%[inhibitor], -10%, -11, -3, 4, -2.6
COC(=O)c1ccccc1NC(=O)NC1CCCC1
 : -1%[15.4 µM], 7%, -3, 0, -14, -3.3
CCC(Sc1nc(N)cc(=O)[nH]1)C(=O)Nc1cc(C)on1 (centres undefined)
 : -5%[15.4 µM], /, -18, 13, -16, -4.4
N#Cc1ccc(C(=O)Nc2ccc(N3CCN(C(=O)c4ccco4)CC3)cc2)c(F)c1
 : 19%, -9%, -1, 1, 2, -1.4
COCCNC(=O)CSc1nnc(NC(=O)C2CC(=O)N(c3ccccc3OC)C2)s1 (centres undefined)
 : -41%[inhibitor], 10%, 8, -2, -5, -0.1
CC1(C)Cc2nc3sc(C(N)=O)c(N)c3cc2CO1
 : 25%, 3%, 7, -5, -6, 5.3
CCCc1cc(=O)oc2c(CNc3ccc(OCC)cc3)c(O)ccc12
 : 5%, 6%, -2, -5, -3, 1.8
CCN1CCN(C(=O)CS(=O)(=O)Cc2nc(-c3cccc(OC)c3)oc2C)CC1
 : ?, 3%, -23, -4, -8, -5.5
COc1cccc(-c2nc(C#N)c(N3CCN(C(=O)c4ccco4)CC3)o2)c1
 : 10%, -22%, -12, -2, -1, -2.2
Cc1cc(C(=O)CSc2n[nH]c(N)n2)c(C)n1-c1cccc(F)c1
 : -21%, -10%, 0, -12, 5, 1.3
COc1ccc(CCNC(=O)c2nn(C)c3c2CS(=O)(=O)c2ccccc2-3)cc1OC
 : -21%, -11%, 0, 5, /, -0.2
O=C(NC(Cc1ccc(O)cc1)C(=O)O)/C(=C/c1ccccc1)NC(=O)c1ccccc1 (centres undefined)
 : -9%[15.4 µM], 0%, -1, 5, 0, -2.0
COc1ccccc1N1CCN(C2CCCN(Cc3c(F)cccc3F)C2)CC1 (centres undefined)
 : 11%, 1%, -2, -9, -1, -4.3
O=C1COc2ccc(C(=O)CSc3nnnn3-c3ccccc3)cc2N1
 : 23%, -5%, 1, 0, -5, 2.3
O=[N+]([O-])c1ccc(N2CCCCC2)cc1NCCOc1ccccc1
 : -2%, 2%, 6, 5, 1, -2.0
COc1ccc(NC(=O)COc2cccc(-n3cnnn3)c2)cc1
 : -7%[15.4 µM], -5%, -8, 2, -1, -1.4
Cc1sc2nc(CSCC(=O)NC3CCCCC3)[nH]c(=O)c2c1C
 : 4%, 11%, 5, 2, -7, -2.7

(continued)
Each structure is followed by: gsp agonist, gsp antagonist, D2 PAM, Six1-Eya2 blk, CtBP-E1A inh, D2 agonist
CC1CC(C)CN(CC(C)(C)NS(=O)(=O)c2ccccc2)C1 (centres undefined)
 : 8%, 3%, -5, 2, -2, -1.5
CCOC(=O)C1=CCC(c2ccccc2C(F)(F)F)N(S(=O)(=O)c2ccc(C)cc2)C1 (centres undefined)
 : /, /, -10, 13, 0, -4.7
CCN(CC)S(=O)(=O)c1ccc(-c2nnc(SCC(=O)N3CCc4ccccc43)o2)cc1
 : -6%, 0%, 5, 1, 4, -1.3
O=C(Nc1ccc(Oc2ccc(Br)cc2)cc1)C1=CC=CN2CCS(=O)(=O)N=C12
 : -11%, 5%, -2, 4, 4, -3.8
CNC(=O)[C@@]1(C)C=C[C@@H](Cc2ccccc2)N1C(=O)OC
 : /, 12%, -10, -8, -6, -1.2
CCOC(=O)c1c(NC(=O)CCC(=O)N2CCOCC2)sc2c1CC(C)(C)OC2
 : 12%, -2%, -10, 0, -3, -0.5
COc1ccccc1NC(=S)N/N=C1\CC(C)(C)Oc2ccc(O)cc21
 : ?, ?, -8, -21, -18, -3.4
COCCOc1cnn(-c2cc(Oc3ccc(C)cc3)ncn2)c(=O)c1Cl
 : -24%, 6%, 12, 2, -1, -2.6
COc1cc(C(=S)N2CCOCC2)cc(OC)c1OS(=O)(=O)c1ccc(C)cc1
 : -3%, -16%, -1, -3, -2, -3.3
CCCCCCn1c(=O)n2n(c1=O)C[C@]1(OC(=O)NCc3ccco3)CN(S(=O)(=O)c3ccc(C)cc3)C[C@]1(O)C2
 : -66%, /, 0, -7, -2, -9.3
Cc1ccc(NC(=S)Nc2cccc(-c3n[nH]c(=S)o3)c2)cc1
 : ?, -20%, -5, 1, -14, -2.3
COc1ccc2c(Cl)c(C(=O)NCCCn3ccnc3)sc2c1
 : 24%, 1%, -3, -18, -23, -0.4
CCN(CC)C(=O)C(=O)c1cccn1-c1cccc(-n2cccc2C(=O)C(=O)N(CC)CC)c1C#N
 : -8%[15.4 µM], 1%, -4, 12, 0, -1.2
CCOC(=O)C1=C(COc2ccccc2)NC(=O)NC1c1cccc([N+](=O)[O-])c1 (centres undefined)
 : /, -4%, -2, -1, -3, -1.7
Oc1ccc(C[C@H]2CNCCN2CCCCC2CCCCC2)cc1
 : -4%, 17%, -8, -15, -16, -2.3
Cc1ccnc(N2CCN(c3cc(C)c(C#N)c4nc5ccccc5n34)CC2)c1
 : 0%, 0%, 2, -1, -1, 0.4
CC(C)NC(=O)C1(C)CCN1Cc1ccc(Cl)cc1 (centres undefined)
 : /, /, -6, -3, 1, 1.6
O=C(O)CC(=O)Nc1ccccc1
 : -11%, 0%, 0, 3, 3, -5.1
COc1ccc(CCC(=O)OCC(=O)Nc2c(C)n(C)n(-c3ccccc3)c2=O)cc1
 : -12%, -1%, 2, 5, /, -1.9
Cc1ccc(/C=C/C(=O)O)cc1S(=O)(=O)NCCCC(=O)O
 : -24%, 7%, 3, -1, 5, -1.5

(further entries)
Each structure is followed by: gsp agonist, gsp antagonist, D2 PAM, Six1-Eya2 blk, CtBP-E1A inh, D2 agonist
CC(=O)N/N=C/c1cc(C(C)C)cc(/C=N/NC(C)=O)c1O
 : 7%, 8%, -17, -74*, -84*, -2.5
CCCCNS(=O)(=O)c1ccc(OC)c2ncccc12
 : 4%, -10%, 19, -1, 3, -1.3
CCOC(=O)C1=C(C)N(C)C(=O)NC1c1cccc([N+](=O)[O-])c1 (centres undefined)
 : 1%, 1%, -15, -2, 1, -2.4
O=C(NCC(c1ccco1)N1CCN(c2ccc(F)cc2)CC1)c1ccco1 (centres undefined)
 : -7%, 5%, -9, -2, -5, -3.8
CSc1nc(-c2cccs2)c(C#N)c(=O)[nH]1
 : 112%[15.4 µM], 18%, -11, -3, -2, 0.7
Cc1ccc(-c2csc(NCCn3c(-c4ccncc4)nc4ccccc43)n2)cc1
 : /, ?, -5, -7, 1, 0.3
c1ccc(OCc2nn3c(Cn4cnc5ccccc54)nnc3s2)cc1
 : 7%, ?, 4, 0, -15, -2.1
CCCCn1c(Oc2ccc(C(=O)OC)cc2)nc2c1c(=O)n(C)c(=O)n2C
 : -47%[inhibitor], -28%, -4, 15, 45, 4.7
CCOC(=O)c1c(-c2ccccc2)oc2ccc(OCC(N)=O)cc12
 : ?, -23%, 5, -11, /, 0.2
COc1ccccc1-c1nnc(SCC(=O)NCc2cccs2)n1N
 : -62%[inhibitor], 10%, -4, -1, 4, 1.8
O=C(NCCCN1CCOCC1)c1cc(-c2ccc(Br)cc2)on1
 : -4%, 11%, -3, -9, -9, 0.7
CCCCCC(=O)Nc1cccc(C2=NOC3(C2)C[C@@H](C(N)=O)N(C(=O)c2ccc(Cl)cc2)C3)c1 (some centres undefined)
 : /, -12%, -3, -1, -5, -1.0
COc1ccc(-c2noc(CCCC(=O)NCC3CCCO3)n2)cc1 (centres undefined)
 : -7%[15.4 µM], -22%, -2, -3, -1, -2.4
O=C(COc1ccccc1)N=C1SC2CS(=O)(=O)CC2N1c1ccccc1F (centres undefined)
 : -27%, 8%, -14, 9, -12, 6.5
CCOCCCNC(=O)c1cc2c(=O)n3ccccc3nc2s1
 : ?, 17%, 6, -12, -5, 3.4
COc1ccc(/C=C/C(=O)O)cc1S(=O)(=O)NC1CCS(=O)(=O)C1 (centres undefined)
 : -2%[15.4 µM], 11%, -10, 0, -1, -2.3
COC(=O)[C@@]1(Cc2ccccc2)[C@H]2C(=O)N(C)C(=O)[C@H]2[C@H]2CN=C(SCC(=O)c3ccccc3)N21
 : /, -1%, -5, 4, 0, -3.7
Cc1nc(CNS(=O)(=O)c2cc(C)c(C)cc2C)cs1
 : 7%, 2%, 4, 14, -2, -0.3
Fc1ccc(-n2nnc(-c3ccnc4ccccc34)n2)cc1
 : 2%, -8%, -10, 5, 0, -5.0
COc1ccc(NC(=O)Nc2nc(C(N)Cc3ccc(C(F)(F)F)cc3)cs2)cc1 (centres undefined)
 : /, /, 7, 0, -14, 0.0

Other results follow:
Each structure is followed by: gsp agonist, gsp antagonist, D2 PAM, Six1-Eya2 blk, CtBP-E1A inh, D2 agonist
O=c1[nH]cnc2c([N+](=O)[O-])cccc12
 : -25%, 7%, -18, -3, -1, -3.5
O=C(Cn1cc(C(=O)c2ccco2)c2ccccc21)NC1CCCCC1
 : -3%[15.4 µM], 2%, 0, -6, 0, 0.1
CC(OC(=O)c1c2c(nc3ccccc13)/C(=C\c1ccc3c(c1)OCO3)CCC2)C(=O)Nc1ccc(S(N)(=O)=O)cc1 (centres undefined)
 : ?, -9%, 6, 22, 44, 9.4
O=C(c1cccs1)N(Cc1ccccn1)Cc1ccco1
 : 25%, 7%, 0, 0, 4, -2.8
COc1ccc(CC(=O)OCC(=O)N(CC(C)C)c2c(N)n(Cc3ccccc3)c(=O)[nH]c2=O)cc1
 : -16%, -19%, -37, 29, 2, -5.3
CCCn1c(SC(C(=O)Nc2cccc(OC)c2)c2ccccc2)nc2ccccc2c1=O (centres undefined)
 : 13%, 7%, 0, 15, 3, -0.6
N#Cc1c(N)n(CCNC(=O)c2cccs2)c2nc3ccccc3nc12
 : -17%, 10%, 7, ?, ?, 0.5
CN1CCN(C(=O)c2cccc(-c3cccc4nccn34)c2)CC1
 : /, /, -1, 11, -15, -2.6
O=S(=O)(c1cc(Cl)ccc1Cl)n1nnc2ccccc21
 : 17%, 1%, -10, 3, -9, 1.9
COC(=O)c1c(N)c2ccccc2[nH]c1=O
 : -34%[inhibitor], 11%, -5, -3, 4, -2.6
COc1ccc(CCNS(=O)(=O)c2ccc3c(c2)OCCO3)cc1OC
 : -7%, 4%, -4, 3, 15, -0.8
